Vaccinia Venus = qHTS for Stage-Specific Inhibitors of Vaccinia Orthopoxvirus: Venus Reporter Primary qHTS; AID 720580, 2013; Potency, µM (top dose mostly 36.5 µM), for the others: at the top dose activity change, negative = inhibition, actives largely listed as inhibitors; Vaccinia virus Venus reporter expression, fluorescence; actives 0.46% (n = 330,000); active means well fitted inhibition curve with a large enough effect; inconclusive means small, poorly fitted or top-dose-only effect; inactive means no such curve, though single readings can be large or run the other way; tested in A549 cells; also: nearly all actives have a fitted effect of over 30% in size; inactives centre near -10
VACV mCherry inh = qHTS for Stage-Specific Inhibitors of Vaccinia Orthopoxvirus: mCherry Reporter Primary qHTS | Vaccinia virus mCherry reporter infection, fluorescence; about a quarter of the inactives have no number | Potency, µM (titrated, usually from 36.5 µM), for inactives: at the highest dose activity change, negative = inhibition, actives largely listed as inhibitors | actives 0.63% (n = 310,000) | AID 720579, 2013; active = well fitted inhibition curve with a large enough effect; inconclusive = small, poorly fitted or top-dose-only effect; inactive = no such curve, though single readings can be large or run the other way; tested in A549 cells; also: nearly all actives have a fitted effect of over 35% in size; inactives centre near -10
Starred values were filed as active, the others as inactive; i = inactive; ? = inconclusive; . = not tested or not shown; [ ] = another dose, or the depositor's remark. % is scaled to controls: 0 for no effect and ±100 for the full control effect; potency is read from the fitted curve at half-maximal effect.

No.	compound	Vaccinia Venus	VACV mCherry inh
1	CC(C)C[C@H]1CN(CCCC[C@@H]2CNC(=O)C(=O)N2CC2CCCCC2)C(=O)C(=O)N1Cc1ccccc1	2%	39%[activator]
2	COc1ccc2[nH]c(=O)c(CN(C(=O)C(C)C)c3ccccc3OC)cc2c1	-19%	i
3	NC(=O)CSc1nnc(C2CC2)n1-c1ccccc1	-5%	-15%[1.46 µM]
4	CC(C)(C)C1CCCCC1NC(=O)c1ccncc1 (centres undefined)	-9%	i
5	CN(C)S(=O)(=O)N1CCN(C(=O)N2CCCCC2)CC1	-8%	i
6	CCOC(=O)C1Cc2c([nH]c3ccccc23)CN1 (centres undefined)	-7%	-14%
7	Cc1ccc(S(=O)(=O)N(C)C/N=C(\N)N[N+](=O)[O-])cc1	-6%	-6%
8	Cc1cc(C(=O)N/N=C2\CCCC(=O)C2)c2ccccc2n1	-3%	-7%
9	Cc1ccc(Nc2nc(-c3ccncc3)nc3ccccc23)cc1	-1%	?
10	O=C(Cc1ccccc1)N[C@H](c1ccccc1)P(=O)(O)CO	-21%	.
11	Cc1ccc(CNc2nc(N)c([N+](=O)[O-])c(NCc3ccccc3)n2)cc1	13%	-1%
12	O=C(/C=C/c1ccc([N+](=O)[O-])cc1)NCCOc1ccc(F)cc1	2%	i
13	c1ccc(-[n+]2nc(Nc3cccc4ccccc34)sc2-c2c3ccccc3cc3ccccc23)cc1	-29%	i
14	O=C(Nc1ccccc1)N1CCCN(c2c(Cl)cncc2Cl)CC1	-12%	-15%
15	O=C(O)COc1ccccc1/C=N/NC(=O)c1ccc(F)cc1	6%	-27%
16	O=C(c1c(F)cccc1F)N1CCN(c2ccccc2F)CC1	-22%	-20%
17	CCC(=O)N1c2ccccc2CC1C(=O)N1CCN(c2ccccc2)CC1 (centres undefined)	1%	1%
18	COc1ccccc1C(=O)Nc1ccnn1C1CCN(Cc2ccc3nonc3c2)CC1	0%[7.34 µM]	i[7.34 µM]
19	CCOC(=O)Cn1cnc2sc3c(c2c1=O)CCC3	-7%	-8%
20	CC(Sc1nncs1)C(=O)Nc1ccc2c(c1)OCO2 (centres undefined)	-7%	-25%
21	[O-][N+]12CCN(CC1)c1ccccc12	-8%	-8%
22	OCCCNC(=S)Nc1ccc2nc(-c3ccccn3)c(-c3ccccn3)nc2c1	-12%	-15%
23	CCN(c1ccccc1)S(=O)(=O)c1ccc(OC)c(NC(=O)c2ccc(=O)[nH]c2)c1	-18%	i
24	Cn1cnc2c(cnn2C)c1=O	1%	-1%
25	Cc1ccc(C(=O)Nc2c(C(=O)Nc3ccc(C)c(C)c3)sc3nc(C)cc(C)c23)cc1	?	?
26	Cc1nn(CC(=O)NC2CC2)c(=O)c2cc3ccccc3n12	-4%	-3%
27	O=C(N[C@@H](Cc1ccccc1)C(=O)N1CCN(S(=O)(=O)c2ccc(F)cc2)CC1)c1ccco1	-13%	i
28	Cc1nc2c(OCCOc3ccc(F)cc3)cccn2c1N(C)C(=O)CCC1CCCC1	-16%	10%
29	CCOC(=O)C(C)Oc1cccc2c(=O)n(CC(=O)NCCc3ccccc3)ccc12 (centres undefined)	-20%	-19%
30	COc1ccc(OC)c(S(=O)(=O)Nc2cc3c4c(c2)CCC(=O)N4CCC3)c1	-22%	i
31	O=C1c2cccc3c([N+](=O)[O-])ccc(c23)C(=O)N1O	162%[activator]	i
32	Cc1ccc(S(=O)(=O)C(CNC(=O)Cc2ccc(Cl)cc2)c2cccs2)cc1 (centres undefined)	-22%	-5%
33	Cc1ccc(CCNC(=O)CNC(=S)N(Cc2ccccc2)Cc2cccnc2)cc1	-15%	-14%
34	O=c1cc(-c2ccc(O)c(O)c2)oc2cc(O)cc(O)c12	?	?
35	O=C(NCCCN1CCCC1)C1CCC(=O)N1C1CCCCC1 (centres undefined)	-2%	-1%
36	Cc1ccc2c3c([nH]c2c1C)-c1nonc1CC3	-15%	-20%
37	COc1ccc(-c2csc(Nc3ccc(S(=O)(=O)Nc4cc(C)on4)cc3)n2)cc1C	-27%	-19%
38	O=C(N/N=C/C1=Cc2ccccc2OC1)c1ccncc1	-12%[7.34 µM]	-13%[7.34 µM]
39	O=C(CSc1nnc(CNC(=O)c2cccs2)o1)Nc1ccccc1	-7%	-11%
40	Cc1ccc(NC(=O)c2cc3c(=O)n(Cc4ccco4)ccc3nc2C)cc1C	-8%	-3%
41	CCCS(=O)(=O)N1CCCC(C(=O)NCCCN(C)c2ccccc2)C1 (centres undefined)	-2%	.
42	CC1OC(O[C@H]2C[C@@H](O)[C@]3(CO)[C@H]4[C@H](O)C[C@]5(C)[C@@H](C6=CC(=O)OC6)CC[C@]5(O)[C@@H]4CC[C@]3(O)C2)C(O)C(O)C1O (some centres undefined)	0.0035µM*	?
43	C[N+]1(CC(=O)OCCCc2ccccc2)CCCCC1	1%	0%
44	COc1ccc(NC(=O)c2cc(-c3cc(Cl)ccc3OC)n[nH]2)c(C)c1	-26%	i
45	Cc1nc(C)n(C(C)CNS(=O)(=O)c2ccc(C)c(C)c2)n1 (centres undefined)	1%	i
46	O=C(OCC(=O)c1c[nH]c2ccccc12)c1ccc(OC(F)F)cc1	-23%	-10%
47	Cc1cccc(N(Cc2ccccc2)C(=O)c2ccc(F)c(S(=O)(=O)N3CCOCC3)c2)c1	-16%	-1%
48	CC(=O)n1cc([C@@H]2C=C(C(=O)Nc3ccccc3)O[C@H](OCc3ccc(CO)cc3)C2)c2ccccc21	-26%	-15%
49	Cc1ccc2nc(-c3ccccc3)c(Cc3cccc(F)c3)n2c1	-1%	-9%
50	Cc1ccc(NC(=O)CNC(=O)c2sc3ccccc3c2Cl)nc1	-8%	-14%
51	COc1cc2c(cc1OC)C(=O)CC(C)S2 (centres undefined)	-22%	.
52	O=C(Nc1cccc(C(=O)N2CCCC2)c1)C1CC1	-19%	i
53	CCCN(CCC)S(=O)(=O)c1cc2c(cc1Br)CCN2C(=O)CC	-1%	-19%
54	Cc1ccc(SCc2cc(-c3ccc(Cl)cc3)on2)cc1	-9%	.
55	C=CCOCCN(C)C1=NS(=O)(=O)c2cc([N+](=O)[O-])ccc21	?	?
56	COc1ccc(OC)c(NS(=O)(=O)c2ccc(Br)s2)c1	-18%	-16%
57	Cc1nnc(SC(C)C(=O)Nc2ccc3ccccc3c2)[nH]c1=O (centres undefined)	1%	i
58	COc1ccc(NC(=O)CN(C)C(=O)Cn2cnc3c2c(=O)n(C)c(=O)n3C)cc1	-5%	i
59	CC(Sc1nnc(N)s1)c1ccccc1Cl (centres undefined)	-3%	-7%
60	CCOc1ccc(Oc2nc(Nc3ccc(C)cc3)nc(N(C)C)n2)nn1	-28%	-22%

Looked up above:
#46 @ VACV mCherry inh = -10%
#57 @ Vaccinia Venus = 1%
#44 @ Vaccinia Venus = -26%

Looked up one by one from the list above:
No.	compound	Vaccinia Venus	VACV mCherry inh
58	COc1ccc(NC(=O)CN(C)C(=O)Cn2cnc3c2c(=O)n(C)c(=O)n3C)cc1	-5%	i
41	CCCS(=O)(=O)N1CCCC(C(=O)NCCCN(C)c2ccccc2)C1 (centres undefined)	-2%	.
57	Cc1nnc(SC(C)C(=O)Nc2ccc3ccccc3c2)[nH]c1=O (centres undefined)	1%	i
59	CC(Sc1nnc(N)s1)c1ccccc1Cl (centres undefined)	-3%	-7%
43	C[N+]1(CC(=O)OCCCc2ccccc2)CCCCC1	1%	0%

Next part
No.	compound	Vaccinia Venus	VACV mCherry inh
61	Cn1cc([N+](=O)[O-])c(C(=O)N/N=C/c2ccc3c(c2)OCO3)n1	-13%	-17%
62	Cc1ccccc1OCC(=O)NCCc1nc2ccccc2[nH]1	-6%	-7%
63	O=C(NCSc1ccnc(SCNC(=O)c2ccccc2)n1)c1ccccc1	-10%	-2%
64	O=C(OCC(=O)N1CCOCC1)c1ccc(F)cc1Cl	1%	-9%
65	COc1ccc(N2C(=S)N=C(Nc3ccccc3)C23CCCCC3)cc1	-23%	-11%
66	C/C(=N/Nc1ccc(C(=O)O)cc1)c1ccc(O)c(O)c1O	13%	-7%
67	O=C(Nc1ccc(F)cc1)Oc1ccc[nH]c1=O	-15%	-14%
68	OC[C@@H](O)[C@@H](O[C@H]1O[C@H](CO)[C@@H](O)[C@H](O)[C@H]1O)[C@H](O)[C@@H](O)CO	-13%	i
69	CCCN1CCN(CCNC(=O)Nc2ccc(OC)c(OC)c2)CC1	3%	-3%
70	Cc1sc2ncnc(Nc3ccc(N4CCOCC4)cc3)c2c1-c1ccccc1	?	-26%
71	Cc1ccccc1C(=O)Nc1sc2c(c1C(=O)O)CCC2	-20%	-19%
72	CS/C(=N\S(=O)(=O)c1cccs1)Nc1ccc(F)c(Cl)c1	-17%	i
73	O=C(OCCNc1ccc(C(F)(F)F)cc1[N+](=O)[O-])c1cc2ccccc2oc1=O	-3%	-23%
74	Cc1ccc(S(=O)(=O)Nc2ccc(C(=O)NCc3ccccn3)cc2)cc1	-8%	-22%
75	CC(=O)OC(c1nc2ccccc2c(=O)n1C1CC2(OC1=O)c1ccccc1N1C(=O)C(C)(C)N(O)C12)C(C)C (centres undefined)	-8%	-13%
76	COc1ccc(N2CCN(S(=O)(=O)c3ccc(-c4cc(C(F)(F)F)on4)s3)CC2)cc1	-7%	-13%
77	CCCc1nn(C)c(C(=O)Nc2cccc(CC)c2)c1Cl	-12%	i
78	CC(=O)NCCNc1ncnc2ccc(-c3ccc(C(=O)N(C)C)cc3)cc12	0%	11%
79	COc1ccc(C(NC(=O)CN2CCCCCC2)c2ccc(OC)cc2)cc1	-16%	?
80	CN1CCc2nc3ccc(F)cc3c(C(N)=O)c2C1	-13%	.

Entries from the list above with a furan ring, fused or not:
No.	compound	Vaccinia Venus	VACV mCherry inh
27	O=C(N[C@@H](Cc1ccccc1)C(=O)N1CCN(S(=O)(=O)c2ccc(F)cc2)CC1)c1ccco1	-13%	i
40	Cc1ccc(NC(=O)c2cc3c(=O)n(Cc4ccco4)ccc3nc2C)cc1C	-8%	-3%

Next structures.
No.	compound	Vaccinia Venus	VACV mCherry inh
81	O=C(O)CC/C(=N\Nc1ccc(S(=O)(=O)N2CCOCC2)cc1[N+](=O)[O-])c1cccs1	-15%	-27%
82	Cc1ccc(S(=O)(=O)NN2C(=O)c3ccccc3NC2c2cccc(O)c2)cc1 (centres undefined)	-16%	i
83	O=C(COc1ccc(Br)cc1)N(Cc1ccccc1)c1ccccn1	-4%	-19%
84	CC1C(c2ccccc2)OCCN1C (centres undefined)	-1%	i
85	Cc1ccc(C(=O)NCC(=O)Nc2cccc(C(F)(F)F)c2)cc1	-3%	i
86	Cc1onc(-c2c(Cl)cccc2Cl)c1C(N)=S	-5%	?
87	CCCCN1C(=O)c2ccc(C(=O)N(C)CC(=O)Nc3ccc(OCC)c(OCC)c3)cc2C1=O	-12%	-19%
88	O=C(c1cccnc1)N1CCN(Cc2ccc3c(c2)OCO3)CC1	1%	-9%
89	COc1ccc(N2CCN(C(=O)C(C)n3c(=O)cc(C(F)(F)F)c4c(C)nn(C)c43)CC2)cc1 (centres undefined)	7%	i
90	Cc1ccc(S(=O)(=O)NC2(C(F)(F)F)NC(=O)N(C)C2=O)cc1 (centres undefined)	-10%	-14%
91	Cc1ccc(S(=O)(=O)N2CCN(C(C)C(=O)Nc3ccccc3-c3ccccc3)CC2)cc1 (centres undefined)	-4%	-10%
92	CC1CCN(CC(=O)Nc2nc(-c3ccccc3)cs2)CC1	-10%	-13%
93	COc1cccc(N2CC(NC(=O)C3CC3)CC2=O)c1 (centres undefined)	-1%[7.34 µM]	12%[7.34 µM]
94	COc1ccc(-c2nc(C#N)c(NC(C)c3ccccc3)o2)cc1OC (centres undefined)	-29%	.
95	Nn1cc(-c2ccccc2)nc1SCC(=O)N1CCN(S(=O)(=O)c2ccc3ccccc3c2)CC1	-5%	.
96	O=c1[nH]c(N2CCOCC2)nc2c1CCCC2	-3%	-9%
97	Cc1cc(S(=O)(=O)N2CCC(N3CCCCC3)CC2)ccc1-n1cnnn1	-5%	i
98	CCc1nnc(NC(=O)C2CCCN2C(=O)Nc2ccccc2)s1 (centres undefined)	2%	i
99	C=CCNC(=O)c1sc(=S)n(-c2ccc(C(=O)OCC)cc2)c1N	-18%	-11%
100	COCC(C)n1c(C)cc(C(=O)COC(=O)c2c(C)nn(-c3ccccc3)c2C)c1C (centres undefined)	-27%	?
101	CC(C)(C)NC(=O)C(c1ccccn1)N(C(=O)c1csnn1)C1CCCCC1 (centres undefined)	-14%	i
102	CCCCNC(=O)Cn1cnc2c(cnn2-c2ccc(C)cc2)c1=O	-13%	i
103	Cn1ccc(-c2ccccc2)c(C#N)c1=O	-19%	i
104	CN1CCN(c2ccc([N+](=O)[O-])c3no[n+]([O-])c23)CC1	?	?
105	O=S(=O)(c1ccccc1)N1CCCCC1c1cccnc1 (centres undefined)	-23%	-24%
106	Cc1ccc2nc(SCC(=O)NC3CCCc4ccccc43)[nH]c2c1 (centres undefined)	?	?
107	COc1cccc(Nc2nc(CN3CCOCC3)nc3sc4c(c23)CCCC4)c1	-27%	?
108	Cc1nn(CC(=O)NCc2ccco2)c(=O)c2cc3ccccc3n12	?	?
109	CSCCC(NC(=O)C12CC3CC(CC(C3)C1)C2)C(=O)OCC(=O)c1ccccc1 (centres undefined)	-18%	-4%
